Source: PubChem BioAssay
AF4-AF9 inh: blocks AF4 peptide binding to human AF9. P42568. AlphaScreen, biotin-AF4 peptide binding to FLAG-AF9. inhibition, % at 10 µM. hit rate 0.47% among 350,000. AID 651704;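 active = every replicate reaching a set inhibition limit, whatever the replicate mean, cut at about 25% in these data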;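 also: 0% = plate neutral control median and 100% = total signal loss; the record names both 10 and 1 µM as test concentration; the first replicate is given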
Target sequence (P42568 whole entry, looked up): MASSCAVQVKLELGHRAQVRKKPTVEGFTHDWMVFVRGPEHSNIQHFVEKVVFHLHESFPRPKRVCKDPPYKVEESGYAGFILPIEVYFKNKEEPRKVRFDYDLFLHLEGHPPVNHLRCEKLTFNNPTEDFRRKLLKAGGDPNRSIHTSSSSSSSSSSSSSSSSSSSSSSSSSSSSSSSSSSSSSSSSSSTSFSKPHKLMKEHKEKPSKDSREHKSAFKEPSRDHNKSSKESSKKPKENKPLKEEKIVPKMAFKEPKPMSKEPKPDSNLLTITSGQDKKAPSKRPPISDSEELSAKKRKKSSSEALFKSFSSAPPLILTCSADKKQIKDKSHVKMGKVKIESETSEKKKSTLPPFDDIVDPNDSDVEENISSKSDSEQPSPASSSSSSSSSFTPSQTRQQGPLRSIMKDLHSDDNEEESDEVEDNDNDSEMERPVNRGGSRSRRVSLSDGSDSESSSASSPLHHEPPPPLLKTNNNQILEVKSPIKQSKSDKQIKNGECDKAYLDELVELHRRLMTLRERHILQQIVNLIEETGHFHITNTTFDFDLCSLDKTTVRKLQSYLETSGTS
Ecoli rRNA inh: inhibitors of bacterial rRNA selective over humanized ribosomes; E. coli WT GFP vs humanized-ribosome RFP mutants, fluorescence, 24 h; active compounds read low; DMSO median 0, no signal -100; GFP signal change (wild-type ribosome), % (no concentration beside the values); hit rate 1.6% among 350,000;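 active = significant combined selectivity score with lowered wild-type GFP, culture density cut under 30%, mutant RFP and density less affected; inactive = any of these conditions unmet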; also: one replicate is shown; some compounds called inactive have numbers as strong as hits
Ecoli rRNA inh OD600: also measured in Ecoli rRNA inh; calls as there; OD600 change, %; measured here: OD600 growth;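 optical density of the mix in the first replicate; 0 = DMSO median and -100 = no signal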
Ecoli rRNA inh RFP: recorded beside Ecoli rRNA inh, whose call it bears; RFP signal change, %; measured here: RFP humanized mutant strains;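 first replicate; 0 = DMSO median and -100 = no signal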
Numbers without * were called inactive; & = joins results of further samples. Only part of the results is shown; count on the stated rates, not on these rows.

The opening 11 entries as a preview:
SMILES	AF4-AF9 inh	Ecoli rRNA inh	Ecoli rRNA inh OD600	Ecoli rRNA inh RFP
COc1ccc(NC(=O)N2CCCCN3[C@@H](CO)[C@H](c4ccc(-c5ccccc5F)cc4)[C@@H]3C2)cc1	-2.3	-56	-80	-14
CC(C)NC(=O)c1cc(C2CCCCN2C(=O)c2ccc(Cl)cc2)on1 (configuration not stated)	-7.8	9	20	1.2
N#Cc1cccc(-c2ccc3c(c2)[C@H]2[C@H](CCN2S(=O)(=O)c2cccc(F)c2)[C@@H](CO)N3)c1	-4.6	-10	-29	16
COc1cccc(C#Cc2ccc([C@@H]3[C@@H](CO)N4C(=O)CN(C(=O)Cc5ccccc5)C[C@H]34)cc2)c1	-1.3	2	-24	24
C[C@H]1CN([C@@H](C)CO)C(=O)Cc2cc(NC(=O)CCN3CCOCC3)ccc2O[C@H]1CN(C)S(=O)(=O)c1cn(C)cn1	-7.5	1	0	0.4
C[C@H](CO)N1C[C@H](C)[C@H](CN(C)C(=O)Nc2ccc(C(F)(F)F)cc2)Oc2ccc(NS(=O)(=O)c3ccc(F)cc3)cc2C1=O	-1.5	0	-2	-0.5
C[C@H]1CN([C@@H](C)CO)S(=O)(=O)c2ccc(C3=CCCC3)cc2O[C@@H]1CN(C)Cc1ccccn1	1.6	-44	-72	-2.5
CO[C@H]1CN(C)C(=O)c2ccc(NS(=O)(=O)c3ccc(C)cc3)cc2OC[C@@H](C)NC[C@@H]1C	-1.9	1	3	1.2
O=C(Cc1cccnc1)N[C@@H]1CC[C@@H](CCn2cc(Cc3ccccc3)nn2)O[C@H]1CO	-1.8	2	15	-3.0
O=S(=O)(N[C@@H]1CC[C@H](CCn2cc(-c3cccc(F)c3)nn2)O[C@H]1CO)c1ccc(Cl)cc1	1.2	-4	-37	29
OC[C@@H]1CN(Cc2ccncc2)C[C@H](n2cnc3c(NC4CCCC4)ncnc32)O1	-6.7	8	11	-0.4

This part in full (from the top)
SMILES	AF4-AF9 inh	Ecoli rRNA inh	Ecoli rRNA inh OD600	Ecoli rRNA inh RFP
COc1ccc(NC(=O)N2CCCCN3[C@@H](CO)[C@H](c4ccc(-c5ccccc5F)cc4)[C@@H]3C2)cc1	-2.3	-56	-80	-14
CC(C)NC(=O)c1cc(C2CCCCN2C(=O)c2ccc(Cl)cc2)on1 (configuration not stated)	-7.8	9	20	1.2
N#Cc1cccc(-c2ccc3c(c2)[C@H]2[C@H](CCN2S(=O)(=O)c2cccc(F)c2)[C@@H](CO)N3)c1	-4.6	-10	-29	16
COc1cccc(C#Cc2ccc([C@@H]3[C@@H](CO)N4C(=O)CN(C(=O)Cc5ccccc5)C[C@H]34)cc2)c1	-1.3	2	-24	24
C[C@H]1CN([C@@H](C)CO)C(=O)Cc2cc(NC(=O)CCN3CCOCC3)ccc2O[C@H]1CN(C)S(=O)(=O)c1cn(C)cn1	-7.5	1	0	0.4
C[C@H](CO)N1C[C@H](C)[C@H](CN(C)C(=O)Nc2ccc(C(F)(F)F)cc2)Oc2ccc(NS(=O)(=O)c3ccc(F)cc3)cc2C1=O	-1.5	0	-2	-0.5
C[C@H]1CN([C@@H](C)CO)S(=O)(=O)c2ccc(C3=CCCC3)cc2O[C@@H]1CN(C)Cc1ccccn1	1.6	-44	-72	-2.5
CO[C@H]1CN(C)C(=O)c2ccc(NS(=O)(=O)c3ccc(C)cc3)cc2OC[C@@H](C)NC[C@@H]1C	-1.9	1	3	1.2
O=C(Cc1cccnc1)N[C@@H]1CC[C@@H](CCn2cc(Cc3ccccc3)nn2)O[C@H]1CO	-1.8	2	15	-3.0
O=S(=O)(N[C@@H]1CC[C@H](CCn2cc(-c3cccc(F)c3)nn2)O[C@H]1CO)c1ccc(Cl)cc1	1.2	-4	-37	29
OC[C@@H]1CN(Cc2ccncc2)C[C@H](n2cnc3c(NC4CCCC4)ncnc32)O1	-6.7	8	11	-0.4
Cc1noc(C)c1NC(=O)Nc1cccc2c1O[C@@H](CN(C)Cc1ccncc1)[C@H](C)CN([C@H](C)CO)C2=O	-1.6	-5	6	-2.7
C[C@H](CO)N1C[C@H](C)[C@@H](CN(C)Cc2ccncc2)Oc2ncc(C#Cc3ccccn3)cc2C1=O	-1.6	0	-9	5.6
O=C(C[C@H]1CC[C@@H](NC(=O)C2CC2)[C@@H](CO)O1)Nc1ccccc1	-0.1	3	2	-1.5
C[C@H](CO)N1C[C@H](C)[C@H](CN(C)Cc2ccc(C(F)(F)F)cc2)Oc2ccc(NC(=O)C3CC3)cc2C1=O	-1.0	-1	4	-0.6
CC(C)CC#Cc1ccc([C@H]2[C@@H](CO)N3C(=O)CN(C(=O)Cc4ccccc4)C[C@@H]23)cc1	1.2	-56	-73	-1.0
C[C@H]1CN([C@@H](C)CO)C(=O)c2cc(NC(=O)Cc3ccccc3)ccc2O[C@H]1CN(C)C(=O)Nc1ccc(C(F)(F)F)cc1	0.2	-7	2	-0.4
Cc1cc(C(=O)Nc2cccc3c2O[C@@H](CN(C)CC2CC2)[C@@H](C)CN([C@H](C)CO)C3=O)n(C)n1	-2.4	5	9	-0.2
CC(C)N(C[C@@H]1N[C@H](CO)[C@@H]1c1ccccc1)C(=O)CN1CCOCC1	-6.3	11	3	-2.4
C/C=C/c1ccc2c(c1)O[C@@H](CN(C)Cc1ccc(F)cc1)[C@@H](C)CN([C@@H](C)CO)S2(=O)=O	15	-41	-68	-0.6
O=C1NC[C@H](Cc2ccccc2)N(C[C@@H]2CCCN2C[C@H](Cc2ccc(O)cc2)N2C[C@H](Cc3ccccc3)N(CC3CCCCCC3)C(=O)C2=O)C1=O	1.8	-19	-9	9.8
O=c1[nH][nH]c2c1[C@H](CCc1cccc(Cl)c1)O[C@H](C1CC1)C2	-1.0	-37	-65	-4.0
C[C@@H]1CCCCO[C@@H](CN(C)S(=O)(=O)c2cn(C)cn2)[C@H](C)CN([C@@H](C)CO)C(=O)c2cc(NC(=O)CCCN(C)C)ccc2O1	3.6	2	10	-1.9
CCC(=O)N1[C@H](CO)[C@H](c2ccccc2)C12CN(C(=O)c1ccc3c(c1)OCO3)C2	0.5	2	4	-0.4
CCS(=O)(=O)Nc1ccc2c(c1)C(=O)N(C)[C@@H]1CC[C@H](CC(=O)NCCCN3CCOCC3)O[C@@H]1CO2	-0.7	2	7	-0.8

Further entries follow.
SMILES	AF4-AF9 inh	Ecoli rRNA inh	Ecoli rRNA inh OD600	Ecoli rRNA inh RFP
CCC(=O)Nc1ccc2c(c1)C(=O)N(C)[C@@H]1CC[C@@H](CC(=O)NCC3CCCCC3)O[C@@H]1CO2	-0.1	2	2	0.6
C[C@H](CO)N1C[C@H](C)[C@@H](CN(C)Cc2ccccc2)Oc2ncc(/C=C/c3ccccc3)cc2C1=O	13	0	1	5.7
O=C(c1ccc(F)cc1)N1CC(=O)N2[C@@H](CO)[C@H](c3ccc(C#CC4CCCC4)cc3)[C@@H]2C1	5.8	-12	-49	18
COc1ccc2c3c(n(C)c2c1)[C@@H](CO)N(C(=O)CC1CC1)CC31CCN(C(=O)NC(C)C)CC1	-3.8	-3	-6	-0.4
C[C@@H]1CN([C@@H](C)CO)C(=O)c2c(c3ccccc3n2C)-c2ccccc2CO[C@H]1CN(C)Cc1cccc(C(=O)Nc2ccccc2N)c1	5.1	3	6	-1.0
C[C@H](CO)N1C[C@H](C)[C@H](CN(C)Cc2cccnc2)Oc2ncc(C#Cc3ccccn3)cc2C1=O	-4.6	3	9	1.5
C[C@H]1CN([C@@H](C)CO)C(=O)Cc2cc(NC(=O)CCN3CCOCC3)ccc2O[C@H]1CN(C)Cc1ccc(Cl)c(Cl)c1	1.1	0	1	-0.9
C[C@@H]1CN([C@H](C)CO)C(=O)c2c(c3ccccc3n2C)-c2ccccc2CO[C@H]1CN(C)S(=O)(=O)c1ccc(C(F)(F)F)cc1	-0.6	1	4	-4.1
CO[C@@H]1CN(C)C(=O)c2ccc(NS(=O)(=O)c3ccc(C)cc3)cc2OC[C@H](C)N(Cc2nccs2)C[C@@H]1C	3.2	-5	-11	5.2
C[C@@H]1CN([C@@H](C)CO)S(=O)(=O)c2ccc(-c3cncnc3)cc2O[C@H]1CN(C)Cc1cccnc1	8.2	-3	-2	-2.0
C[C@H]1CN([C@@H](C)CO)C(=O)Cc2cc(N(C)C)ccc2O[C@H]1CN(C)C(=O)Nc1ccc(C(F)(F)F)cc1	5.4	-2	-3	0.4
COc1ccc(NC(=O)N(C)C[C@@H]2Oc3ccc(NS(=O)(=O)c4ccccc4)cc3CC(=O)N([C@@H](C)CO)C[C@@H]2C)cc1	0.4	7	18	-1.5
Cc1noc(C)c1NC(=O)N(C)C[C@@H]1Oc2ccc(NC(=O)C3CCCCC3)cc2CC(=O)N([C@@H](C)CO)C[C@H]1C	0.1	3	1	-2.5
C[C@@H]1CCCCO[C@H](CN(C)C(=O)Nc2ccc(C(F)(F)F)cc2)[C@H](C)CN([C@H](C)CO)C(=O)c2cc(NC(=O)Nc3ccc(F)cc3)ccc2O1	-0.5	4	5	-1.0
Cc1ccc(S(=O)(=O)N(C)C[C@H]2OCCCC[C@H](C)Oc3ccc(NC(=O)Nc4ccc5c(c4)OCO5)cc3C(=O)N([C@H](C)CO)C[C@H]2C)cc1	1.6	-6	4	-5.6
CS(=O)(=O)N1[C@H](CO)[C@@H](c2ccc(C#CC3CCCC3)cc2)[C@@H]1C#N	1.2	-32	-66	7.5
CC(C)NC(=O)N(C)C[C@@H]1Oc2c(NC(=O)Nc3ccc(F)cc3)cccc2C(=O)N([C@H](C)CO)C[C@H]1C	-2.7	0	8	0.4
C[C@H]1CN([C@@H](C)CO)S(=O)(=O)c2ccc(-c3cccc(C#N)c3)cc2O[C@H]1CN(C)C(=O)Nc1cc(F)ccc1F	-2.7	-6	-2	2.6
N#C[C@H]1[C@H](c2ccccc2-c2cccc(F)c2)[C@@H](CO)N1C(=O)C1CCCCC1	2.2	1	-39	-2.4
Cc1noc(C)c1NC(=O)Nc1ccc2c(c1)C(=O)N([C@@H](C)CO)C[C@@H](C)[C@H](CN(C)Cc1ccc(C(F)(F)F)cc1)O2	4.1	-4	4	0.7
CC(C)c1cn(CC[C@H]2CC[C@H](NC(=O)C3CCC3)[C@@H](CO)O2)nn1	-0.7	-1	-2	-1.2
Cc1ccc(S(=O)(=O)N(C)C[C@@H]2Oc3ccc(NC(=O)NC(C)C)cc3C(=O)N([C@H](C)CO)C[C@@H]2C)cc1	-3.0	-3	3	0.7
C[C@@H]1CN([C@@H](C)CO)C(=O)c2cc(NC(=O)c3ccncc3)ccc2O[C@@H](C)CCCCO[C@@H]1CN(C)C(=O)Nc1ccccc1	-1.2	1	4	3.6
CN1CCN(c2ccc(-c3cccc4nccn34)cn2)CC1	0.2	12	14	-0.2
C[C@@H]1CN([C@H](C)CO)C(=O)c2cccc(NC(=O)CCCCCC(=O)Nc3ccccc3N)c2O[C@@H]1CN(C)Cc1ccncc1	-0.5	4	4	-1.5

Other entries:
SMILES	AF4-AF9 inh	Ecoli rRNA inh	Ecoli rRNA inh OD600	Ecoli rRNA inh RFP
CCNC(=O)C[C@@H]1CC[C@@H]2[C@H](COC[C@@H](O)CN2C(=O)c2ccccn2)O1	-0.1	4	9	1.0
COCC(=O)N1CC2(CCN(Cc3ccccc3Cl)CC2)c2c([nH]c3cc(OC)ccc23)[C@@H]1CO	7.7	-2	-6	3.0
COc1ccc(CN(C)C[C@@H]2Oc3ccc(NC(=O)C4CCCCC4)cc3C(=O)N([C@H](C)CO)C[C@@H]2C)cc1	-0.3	0	4	0.7
CNC(=O)C[C@H]1CC[C@@H]2[C@@H](COc3ccc(NC(=O)c4ccccc4OC)cc3C(=O)N2C)O1	-5.4	1	2	-1.5
O=C(N[C@@H]1CC[C@@H](CCNS(=O)(=O)c2ccc(Cl)cc2)O[C@@H]1CO)c1cccnc1	-0.3&0.8	1&0	-5&3	-1.9&-1.4
CO[C@@H]1CC[C@@H]2CCOc3c(C#N)cccc3C(=O)N(C)CC3(CCCCC3)CC(=O)N(C)C[C@H]1O2	-0.6	-3	-6	-3.4
C[C@@H]1CCCCO[C@@H](CN(C)Cc2ccc(Cl)c(Cl)c2)[C@H](C)CN([C@@H](C)CO)C(=O)c2cc(NS(=O)(=O)c3ccccc3)ccc2O1	4.5	-1	-2	9.8
C[C@@H]1CCCCO[C@H](CN(C)S(=O)(=O)c2ccccc2)[C@@H](C)CN([C@@H](C)CO)C(=O)c2cc(NC(=O)C3CCCCC3)ccc2O1	0.9	1	3	0.7
COc1ccc(NC(=O)C[C@@H]2C(=O)N(c3ccc(OC)cc3)CC2(C)C)cc1	3.8	3	3	1.0
CCCCN1CC(COCc2ccccc2)Oc2cccc(Oc3ccc(SC)c(C)c3)c2S1(=O)=O (configuration not stated)	-5.0	21	16	2.7
C[C@@H]1CN([C@@H](C)CO)C(=O)c2cc(NC(=O)NC3CCCCC3)ccc2O[C@@H](C)CCCCO[C@H]1CN(C)S(=O)(=O)c1ccc(F)cc1	-1.9	-3	1	-3.6
CO[C@@H]1CN(C)C(=O)c2cc(NS(=O)(=O)c3ccccc3C)ccc2OC[C@@H](C)N(S(C)(=O)=O)C[C@H]1C	-3.2	-1	-5	0.1
CC(C)NC(=O)N(C)C[C@H]1Oc2cc(-c3ccccc3F)ccc2S(=O)(=O)N([C@@H](C)CO)C[C@H]1C	0.0	-5	-2	0.6
C[C@@H]1CN([C@@H](C)CO)C(=O)c2cc(NC(=O)Cc3cn(C)c4ccccc34)ccc2O[C@H]1CN(C)Cc1ccc2c(c1)OCO2	13	1	-5	5.1
